Screens as filed in PubChem BioAssay.
NS1 function inh – inhibitors of influenza NS1 protein function | S. cerevisiae slowed by influenza A NS1, growth recovery by OD600 | Potency, µM (doses to about 46.1 µM), without a hit: at the top dose activity, positive = more growth | hit rate 0.4% among 270,000 | AID 2326; also: actives are rising curves; nearly all actives have a fitted effect of over 50% in size
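S. cerevisiae expressing influenza A NS1, grown in glucose, washed, then diluted 1:100 into pH 6.0 -URA galactose medium with 23 nl compound. Growth recovery read as OD600; NS1-free strain serves as control.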
MARV entry inh – Marburg virus entry inhibition; Marburg virus pseudotyped entry inhibition, cell reporter; control for the full effect not named in the record; about a third of the inactives were read at about 46 µM; Potency, µM (top dose mostly 37.8 µM), without a hit: at the top dose activity change, negative = inhibition, usual class: inhibitors; hit rate 1.8% among 300,000; active = well fitted inhibition curve with a large enough effect; inconclusive = small, poorly fitted or top-dose-only effect, or effect the other way; inactive = flat fitted curve, though single readings scatter; tested in HEK293 cells; about a fifth of its hits are not listed in these tables; also: % is scaled to controls: 0 for no effect and ±100 for the full control effect; luciferase read-out
Cruzain inh Det – blocks cruzain activity in presence of Triton detergent; Potency, µM, for the others: max response, negative = inhibition, most hits filed as inhibitors; hit rate 0.43% among 200,000; P25779; purified cruzain, Z-FR-AMC fluorescence, 0.01% Triton; active = well fitted curve in the direction sought with a large enough effect; inconclusive = small, poorly fitted or top-dose-only effect, or another doubt; inactive = no such curve, though single readings can be large; an effect the other way counts as inactive or inconclusive;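 also: plate controls were neutral wells for no effect and buffer without enzyme for full effect; nearly all actives have a fitted effect of over 40% in size; top concentration of the series not given in the record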
Target sequence (P25779 123-467 limits assumed): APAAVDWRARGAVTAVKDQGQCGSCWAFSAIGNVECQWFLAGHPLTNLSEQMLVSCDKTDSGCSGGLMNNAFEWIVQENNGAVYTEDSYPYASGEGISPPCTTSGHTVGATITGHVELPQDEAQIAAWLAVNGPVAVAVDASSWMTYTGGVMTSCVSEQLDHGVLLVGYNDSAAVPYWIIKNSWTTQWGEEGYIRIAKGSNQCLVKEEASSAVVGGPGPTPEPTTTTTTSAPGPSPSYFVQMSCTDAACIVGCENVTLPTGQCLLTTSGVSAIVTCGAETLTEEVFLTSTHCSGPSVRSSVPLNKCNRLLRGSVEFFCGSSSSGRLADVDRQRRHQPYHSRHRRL
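Detergent-containing run (0.01% Triton X-100) in acetate buffer pH 5.5 with 5 mM DTT: enzyme at 1.5 nM final, 15 min compound preincubation at room temperature, then 2 uM Z-FR-AMC substrate. Activity taken as 60 s fluorescence increase at 360/450 nm.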
RE007 growth inh – less growth of the S. pombe RE007 Vpr strain | S. pombe RE007 Vpr strain, BacTiter-Glo ATP luminescence, 24 h; control for the full effect not named in the record | hit rate 0.21% among 360,000 | Potency, µM (top dose mostly 92.2 µM), for the others: at the top dose activity change, negative = less growth; active = well fitted falling curve with a large enough effect; inconclusive = small, poorly fitted or top-dose-only effect; inactive = no such curve, though single readings can be large or run the other way;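 also: % is scaled to controls: 0 for no effect and ±100 for the full control effect; nearly all actives have a fitted effect of over 50% in size; the assay follows cell death caused by Vpr and the record does not say whether a fall means rescue or toxicity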
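Fission yeast strain RE007, carrying one chromosomally integrated HIV-1 vpr copy, was seeded at OD 0.01 in PMG+AL medium with 23 nL pinned compound. After 24 h at 30 °C and 99% humidity, viability was read by BacTiter-Glo luminescence.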
StopGo reporter – FMDV 2A StopGo reporter, luciferase signal; human cells with a luciferase reporter of 2A StopGo recoding; control for the full effect not named in the record; hit rate 1.2% among 410,000; AID 1159524; Potency, µM (series often up to 57.9 µM), without a hit: top-dose signal change, negative = less light; active = well fitted falling curve with a large enough effect; inconclusive = small, poorly fitted or top-dose-only effect; inactive = no such curve, though single readings can be large or run the other way; tested in HEK293T cells; also: % is scaled to controls: 0 for no effect and ±100 for the full control effect; nearly all actives have a fitted effect of over 45% in size; luciferase light after 4 h
LASV entry inh – Lassa virus entry inhibition. Lassa virus pseudotype entry inhibition, cell reporter; control for the full effect not named in the record. Potency, µM (titrated, usually from 37.9 µM), for inactives: at the top dose activity change, negative = inhibition, hits mostly inhibitors. hit rate 1.2% among 300,000; active means well fitted inhibition curve with a large enough effect; inconclusive means small, poorly fitted or top-dose-only effect, or effect the other way; inactive means flat fitted curve, though single readings scatter; tested in HEK293 cells; also: % is scaled to controls: 0 for no effect and ±100 for the full control effect; nearly all actives have a fitted effect of over 50% in size; luciferase read-out
SARS PLP yeast – blocks SARS-CoV papain-like protease in a yeast assay | AID 485353 | S. cerevisiae expressing SARS-CoV PLpro, growth rescue; control for the full effect not named in the record | hit rate 0.19% among 330,000 | Potency, µM (highest dose often 32.9 µM), inactives show top-dose activity, positive = growth rescue; also: 0% is about no effect; nearly all actives have a fitted effect of over 55% in size; growth read by luminescence after 48 h
Cruzain noTriton – blocks cruzain activity in detergent-free assay; purified cruzain, Z-FR-AMC fluorescence, no detergent; Potency, µM, without a hit: max response, negative = inhibition, most hits filed as inhibitors; hit rate 2.3% among 200,000; active = well fitted curve in the direction sought with a large enough effect; inconclusive = small, poorly fitted or top-dose-only effect, or another doubt; inactive = no such curve, though single readings can be large; an effect the other way counts as inactive or inconclusive;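 also: plate controls were enzyme without inhibitor for no effect and buffer without enzyme for full effect; nearly all actives have a fitted effect of over 40% in size; top concentration of the series not given in the record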
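Detergent-free condition (0.00005% Triton X-100) in acetate buffer pH 5.5 with DTT. 1.5 nM enzyme and compound were pre-mixed 15 min, then 2 uM Z-FR-AMC substrate added; reaction progress from fluorescence change between first and third reads (60 s).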
Starred values were filed as active, the others as inactive; u = inconclusive; x = no result given; & = joins results of further samples; [ ] = remark or other dose. Unless noted, calls follow the shape of the dose curve; as a rule, active means well fitted rising curve with a large enough effect; inconclusive means small, poorly fitted or top-dose-only effect; inactive means no such curve, though single readings can be large or run the other way. Potency is read from the fitted curve at half-maximal effect. This is a random part of the collection; 4.6% or so of the library scored in one or more.

SMILES	NS1 function inh	MARV entry inh	Cruzain inh Det	RE007 growth inh	StopGo reporter	LASV entry inh	SARS PLP yeast	Cruzain noTriton
CCOc1ccc(NC(=S)N2CCCN(Cc3cccc(Cl)c3)C2)cc1	x	u	x	-3%	-10%	-18%[46.1 µM]	8%	x
CS(=O)(=O)N1CCCC(C(=O)NCCN2CCC(Cc3ccccc3)CC2)C1 (stereo not drawn)	-2%	2%&2%	4.4%	5%	x	-13%	7%	5%
CCOC(=O)c1c(-c2ccc(F)cc2)csc1NC(=O)CN1C(=O)NC2(CCCCC2C)C1=O (stereo not drawn)	4%	-22%	-5.0%	9%	u	u	13%	2%
COc1ccccc1CNC(=O)CN(c1ccc(C)cc1)S(=O)(=O)c1c(C)n[nH]c1C	-8%	u	-3.1%	20%	2%	u	3%	u
CN(C)Cc1ccc(F)cc1Sc1cc(Cl)ccc1Cl	-16%	8%	6.7%	6%	-12%	3%	u	-1%
CCOC(=O)c1c(NC(=O)c2c(-c3ccccc3)noc2C)sc(C)c1-c1ccccc1	14%	0.13µM*	-13%	-9%	u	u	6%	u
O=C(Cn1cnc2c(cnn2-c2ccc(Cl)cc2)c1=O)NC1CCCCC1	1%	x	1.7%	7%	-24%	x	0%	10µM*
COc1cccc(N/C(=N/C(=S)Nc2ccc(C)cc2C)Nc2nc(C)cc(C)n2)c1	-2%	u	x	-21%	24%	-10%	0%	x
CCN(CC)c1ccc(/C=N/NC(=O)C(O)c2ccccc2)cc1 (stereo not drawn)	-5%	-27%	x	6%	10%	-25%	-2%	x
O=c1[nH]c(C2CC2)nc2sc3c(c12)CCCC3	-6%	-6%[46.1 µM]	x	-11%	10%	-12%	-2%	x
CCOC(=O)C1CCCN(C(=O)Cn2c(=O)c3cccn3c3cccnc32)C1 (stereo not drawn)	1%	6%[46.1 µM]	x	3%	-13%	-13%[46.1 µM]	-6%	x
C=CCN1C(=O)/C(=C/C=C2/N(CC)c3ccc(S(=O)(=O)N(C)C)cc3N2CC)SC1=S	3%	u	x	11%	u	2%	-2%	x
COc1ccc(Cc2n[nH]c(=S)n2Cc2ccccc2)cc1Cl	8%	-21%[46.1 µM]	x	1%	0%	-4%	0%	x
CCOc1ccc(-n2c(SCC(=O)Nc3ccc4c(c3)OCO4)nc3ccccc3c2=O)cc1	24%	-28%[46.1 µM]	4.1%	7%	4%	3%	6%	u
CC(=O)N1N=C(c2ccco2)CC1c1cccs1 (stereo not drawn)	-5%	6%	6.2%	2%	x	-10%	-2%	-7%
CCCCC(=O)Nc1nnnn1CCC	-4%	36%	-0.6%	-3%	35%[activator]	-22%	-14%	1%
COc1cccc(CNC(=O)c2ccc3c(c2)nc2n3CCC(C)C2)c1 (stereo not drawn)	x	x	3.2%	x	19%	2%[46.1 µM]	x	-5%
COc1ccc(S(=O)(=O)N(CC(=O)NCc2ccncc2)c2ccc(C)cc2)cc1OC	-3%	7%	x	-5%	6%	26%	0%	x
COc1ccc2c(c1OC)C(=O)N(c1ccc3c(c1)CCC3)C2=O	7%	-10%	-5.9%	-5%	3%	11%	-4%	-9%
CCc1ccc(OCC(=O)NNC(=S)NC(=O)C2CCCCC2)c(Br)c1	-35%	x	x	5%	5%	x	-14%	x
COc1ccc(N2C(=S)N(C(=O)c3ccccc3)C(=Nc3ccccc3)C2=Nc2ccccc2)cc1	x	u	x	u	-7%	u	x	x
CCCCNC(=S)NC(=O)c1ccc(Cl)cc1Cl	-65%	0%[46.1 µM]	-0.8%	-10%	5%	14%	17%	1%
Cc1cc(C)c(NC(=O)c2ccc3c(c2)C(=O)N(Cc2cccnc2)C3=O)c(C)c1	11%	-6%	x	28%	-16%	-21%	5%	x
CCOC(=O)C(NC(=O)Cc1ccccc1)(Nc1cc(C)on1)C(F)(F)F (stereo not drawn)	-2%	u	-0.9%	4%	11%	-5%	1%	-13%
CCOC(=O)CSc1nc(C(C)(C)C)nc2ccccc12	-3%	13%[46.1 µM]	x	-6%	-20%	6%	-1%	x
CCOC(=O)c1c(C)oc2ccc(OC(=O)N3CCOCC3)cc12	-19%	-19%	-0.2%	-11%	x	-1%	7%	22%
Cc1ccc(S(=O)(=O)N2CCN(C(=O)CN3CCCSc4ccccc43)CC2)cc1	x	u	x	2%	u	-25%	1%	x
Cc1ccc(CNC(=O)CSCc2ccc(F)cc2)cc1	x	u	0.0%	0%	8%&7%	u	-1%	5%
CCC(=O)NC(=S)Nc1cccc(-c2nc3ncccc3o2)c1	-1%	4%	-7.4%	5%	-3%	1%	1%	4%
COc1ccc(NC(=O)N2CCCC(c3nc(-c4ccc(C(C)C)cc4)no3)C2)cc1 (stereo not drawn)	-48%	-26%	-8.1%	0%	u	2%	-21%	19%
Cc1ccc(OCC(=O)NCCN2CCOCC2)cc1C	0%	4%	-2.0%	-12%	-15%	5%	2%	4%
COc1ccc(-c2cc3ccccc3n2CC(O)CN2CCCCC2)cc1 (stereo not drawn)	8%	x	x	32%	-33%	x	-3%	x
Cc1ccc(OCCn2cnc3ccccc3c2=O)c([N+](=O)[O-])c1	10%	2%	-4.3%	7%	58%[activator]	u	22%	-23%
COc1ccc(NC(=O)CSc2nc(O)c(Cc3ccccc3)c(=O)[nH]2)cc1	1%	20%	-1.6%	-7%	-2%	11%	3%	-7%
Cc1cccc(-c2nc(C#N)c(N3CCC(C)CC3)o2)c1	2%	-6%[46.1 µM]	x	-4%	8%	19%[46.1 µM]	4%	x
CN(c1cccc(NC(=O)CN(c2ccc(Cl)c(Cl)c2)S(=O)(=O)c2ccccc2)c1)S(C)(=O)=O	u	u	-5.0%	4%	u	u	22%	0%
OC(COC1CCCCC1)CN1CCN(c2ccccc2)CC1 (stereo not drawn)	6%	-3%	-6.3%	-12%	-9%	4%	3%	-11%
CCOc1ccccc1NC(=O)C1CCCCN1S(=O)(=O)c1ccc(F)cc1 (stereo not drawn)	-47%	u	-2.6%	-8%	u	-23%	0%	-3%
Cc1sc2ncn(CC(=O)Nc3cccc(C(F)(F)F)c3)c(=O)c2c1S(=O)(=O)N1CCN(C)CC1	x	-22%[46.1 µM]	-0.2%	x	-23%	-20%[46.1 µM]	x	14%
CC(C)(CC(=O)O)CC(=O)Nc1ccc(Oc2ccc(C(C)(C)C)cc2)nc1	-1%	x	x	9%	-19%	x	0%	x
Cc1nc(-c2ccccc2)sc1-c1nnc(C2CC2)o1	-9%	11%	x	0%	23%	8%	-1%	x
C/C(=N\Nc1nc(N)cc(Cl)n1)c1ccc(F)cc1	5%	x	x	13%	55%[activator]	x	-3%	x
COC(=O)C1=C(C)NC2=C(C(=O)CCC2)C1c1cccs1 (stereo not drawn)	u	x	1.9%	x	x	x	-2%	-4%
COc1cccc(N2CCN(C(=O)CC(NC(=O)c3ccccc3)c3ccccc3)CC2)c1 (stereo not drawn)	x	-20%	x	7%	-12%	13%	-4%	x
Cc1c(CN2CCC(CO)(CCOc3ccccc3)CC2)c(=O)n(-c2ccccc2)n1C	6%	u	x	-8%	-6%	2%	0%	x
O=C(NNC(=O)c1cccnc1)Nc1ccccc1	15%	4%	7.1%	1%	x	0%	2%	3%
CC(C)c1ccc(NS(=O)(=O)c2cccc3cccnc23)cc1	-3%	x	x	1%	35%[activator]	x	1%	x
COc1ccc(CCC(=O)NCc2ccccc2Cl)cc1OC	3%	x	x	-7%	7%	x	-1%	x
Cc1ccc(C(=O)c2oc3ccccc3c2NC(=O)Cc2coc3ccc(C)cc23)cc1	x	8%[46.1 µM]	-1.7%	x	-4%	10%[46.1 µM]	x	-5%
CCC(C)OC(=O)c1c(N)n(Cc2cccs2)c2nc3ccccc3nc12 (stereo not drawn)	10%	u	-5.7%	-17%	u	-8%	-1%	16%

Continuation:
SMILES	NS1 function inh	MARV entry inh	Cruzain inh Det	RE007 growth inh	StopGo reporter	LASV entry inh	SARS PLP yeast	Cruzain noTriton
COc1cccc(N2CCN(C3CC(=O)N(c4ccc(Cl)c(Cl)c4)C3=O)CC2)c1 (stereo not drawn)	2%[9.22 µM]	-1%	-2.5%	35µM*	u	-8%	-25%	8%
CCOC(=O)N1CCc2c(sc3c2c(=O)n(-c2ccc(F)cc2)c(=O)n3CC(=O)c2ccccc2)C1	x	1%[46.1 µM]	-2.6%	x	1%	7%[46.1 µM]	x	-4%
CC(/C=N/n1c(-c2ccccc2)n[nH]c1=S)=C\c1ccco1	-2%	-17%	-16%	-8%	x	-12%	-6%	-10%
O=Cc1ccc(OCC(=O)Nc2ccccc2-c2ccccc2)cc1	-1%	-13%[46.1 µM]	x	-6%	u	5%	2%	x
CCCN=C1N/C(=C\c2ccco2)C(=O)N1c1ccccc1	1%	0%	-12%	-20%	0%	u	-6%	-12%
Cc1ccc(-n2nc3c4c(cccc4c2=O)-c2ccccc2-3)cc1	4%	u	-4.5%	17%	32%[activator]	-24%	8%	-5%
O=C(CSc1nc2nn(-c3ccccc3)c(=O)c-2c2n1CCCCC2)NCCCc1ccccc1	x	2%[46.1 µM]	x	0%	3%	11%	0%	x
COC(=O)c1ccc(CN2CCC(n3nccc3NC(=O)C3CC3)CC2)cc1	2%	14%	x	2%	-14%	-10%	-1%	x
Cc1ccccc1C(=O)NC1CCN(CC(=O)Nc2ccccc2)CC1	4%	x	x	9%	-10%	x	-3%	x
CC(=O)c1ccc(N2CCN(C(=O)c3ccc4c(=O)n(-c5ccccc5)c(=O)[nH]c4c3)CC2)cc1	-17%	-4%&-4%	-8.5%	12%	-30%	9%	3%	3%
